HIV Env fusion: inhibitors of HIV-1 Env-driven cell-cell fusion, primary screen, HeLa-JRFL effector, CEM21 target cells, luciferase. inhibition, % at 12.3 µM. hit rate 1.1% among 360,000. AID 651610, 2012;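 active = mean replicate inhibition score of at least 50 and every replicate individually at or above 50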;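 also: 0% = plate neutral controls and 100% = maraviroc near 300 nM; one replicate is shown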
* = called active by the depositor; [ ] = remark or other dose. These rows are one share of the data; count on the stated rates, not on these rows.

| HIV Env fusion | structure |
| --- | --- |
| 1[16.7 µM] | CO[C@H]1CN(C)C(=O)c2cc(NC(=O)C3CC3)ccc2OC[C@@H](C)N(C(=O)NC(C)C)C[C@@H]1C |
| -9[16.7 µM] | C[C@@H]1CCCCO[C@H](CN(C)C(=O)CCCN(C)C)[C@H](C)CN([C@H](C)CO)C(=O)c2cc(N(C)C)ccc2O1 |
| -6[16.7 µM] | COc1ccccc1S(=O)(=O)N(C)C[C@H]1OCc2ccccc2-c2c(n(C)c3ccccc23)C(=O)N([C@@H](C)CO)C[C@H]1C |
| 8 | COC1OC(COCc2ccccc2)C2OC(C)(C)OC2C1O (stereo not drawn) |
| -29[16.7 µM] | CCCNC(=O)N1C[C@@H](C)[C@@H](OC)CN(C)C(=O)c2ccc(NC(=O)C3CCC3)cc2OC[C@@H]1C |
| 10[16.7 µM] | COc1ccc(S(=O)(=O)N(C)C[C@H]2OCCCC[C@@H](C)Oc3ccc(NS(=O)(=O)c4cn(C)cn4)cc3C(=O)N([C@H](C)CO)C[C@H]2C)cc1 |
| -25 | CC1CCN(C(=O)c2[nH]cnc2C(=O)N(C)CCO)CC1 |
| -1[16.7 µM] | CO[C@H]1CN(C)C(=O)c2cc(NC(=O)Cc3ccccc3)ccc2OC[C@H](C)N(C(C)=O)C[C@H]1C |
| 33 | COc1ccc(-c2c(-c3ccccc3OC)sc3ccccc23)cc1F |
| 0 | COC(=O)C1=C(C)N(C)C(=NCc2cc(OC)c(OC)c(OC)c2)NC1c1ccc(C(F)(F)F)cc1 (stereo not drawn) |
| 12 | CCCCN1CC(COCc2ccccc2)Oc2cccc(N3CCCCC3)c2S1(=O)=O (stereo not drawn) |
| 23[16.7 µM] | C[C@@H]1CN([C@H](C)CO)C(=O)Cc2cc(NS(C)(=O)=O)ccc2O[C@H]1CN(C)Cc1ccc(-c2ccccc2)cc1 |
| 19[16.7 µM] | CO[C@H]1CN(C)C(=O)c2ccc(NC(=O)c3ccno3)cc2OC[C@H](C)N(C(=O)C2CCC2)C[C@H]1C |
| -6[16.7 µM] | O=C(Nc1ccc(-c2ccccc2)cc1)[C@H]1[C@H](CO)[C@H]2Cn3c(cccc3=O)[C@@H]1N2Cc1ccncc1 |
| 33[16.7 µM] | COc1cccc(C(=O)Nc2ccc3c(c2)C(=O)N(C)C[C@H](OC)[C@@H](C)CN(CCc2ccccc2)[C@@H](C)CO3)c1 |
| -4[16.7 µM] | CO[C@@H]1CN(C)C(=O)c2cc(NC(=O)C3CC3)ccc2OC[C@@H](C)N(C(=O)c2cccnc2)C[C@@H]1C |
| 2[16.7 µM] | C[C@H](CO)N1C[C@H](C)[C@@H](CN(C)Cc2ccncc2)OCCCC[C@H](C)Oc2ccc(NC(=O)C3CCCCC3)cc2C1=O |
| -36 | COCC(=O)N(C)[C@H]1C[C@H]2c3[nH]c4c(-c5ccccc5)cccc4c3CCN2C(=O)[C@H]1[C@H](C)O |
| 55*[16.7 µM] | C[C@H]1CN([C@@H](C)CO)C(=O)c2ccccc2-c2ccccc2CO[C@H]1CN(C)S(=O)(=O)c1ccc(Cl)cc1 |
| -11[16.7 µM] | CO[C@@H]1CN(C)C(=O)c2ccc(NC(=O)c3ccc(F)cc3)cc2OC[C@@H](C)N(C(=O)CC2CC2)C[C@H]1C |
| 13[16.7 µM] | C[C@@H]1CN([C@H](C)CO)S(=O)(=O)c2ccc(Br)cc2O[C@@H]1CN(C)C(=O)C1CCC1 |
| 30[16.7 µM] | CN1C(=O)c2cc(NC(=O)c3ccc(C(F)(F)F)cc3)ccc2OC[C@H]2O[C@H](CC(=O)NCc3ccc4c(c3)OCO4)CC[C@H]21 |
| -8[16.7 µM] | COc1cccc(NC(=O)Nc2ccc3c(c2)C(=O)N(C)[C@H]2CC[C@H](CC(=O)NCCc4ccccc4)O[C@H]2CO3)c1 |
| 22[16.7 µM] | CO[C@H]1CN(C)C(=O)c2ccc(NC(=O)C3CC3)cc2OC[C@@H](C)N(Cc2cccc(F)c2)C[C@@H]1C |
| -8[16.7 µM] | COc1ccc(C#Cc2ccc3c(c2)O[C@@H](CN(C)C(=O)CN2CCOCC2)[C@@H](C)CN([C@H](C)CO)S3(=O)=O)cc1 |
| 12[16.7 µM] | O=C(NCC[C@@H]1CC[C@H](NC(=O)c2cccnc2)[C@@H](CO)O1)Nc1ccc(C(F)(F)F)cc1 |
| -34 | C=CC[C@]12C[C@@]3(O[C@H](c4ccc(C(F)(F)F)cc4)N=C3C[C@H](c3ccc(OC)cc3)[C@H]1C)N(Cc1ccncc1)C2=O |
| 4[16.7 µM] | CO[C@@H]1CN(C)C(=O)c2ccc(NC(C)=O)cc2OC[C@@H](C)N(C(=O)Cc2ccccn2)C[C@H]1C |
| 0 | Cc1cc(N2CCNC[C@H]2C)ccc1N1C[C@@H](C)O[C@@H](C)C1 |
| 26[16.7 µM] | O=C(C[C@@H]1CC[C@H]2[C@@H](COC[C@@H](O)CN2Cc2ccc(Oc3ccccc3)cc2)O1)Nc1nccs1 |
| 6 | Cc1cc(N2CCN(C(=O)OC(C)(C)C)C[C@@H]2C)ccc1Br |
| 15[16.7 µM] | COc1cccc(S(=O)(=O)N2C[C@H](O)COC[C@@H]3O[C@H](CC(=O)N4CCN(c5ccccc5)CC4)CC[C@H]32)c1 |
| 8[16.7 µM] | COCC(=O)Nc1ccc2c(c1)[C@H]1C[C@@H](CC(=O)NCc3cccnc3)O[C@@H](CO)[C@H]1O2 |
| 4[16.7 µM] | COCC(=O)Nc1ccc2c(c1)OC[C@H](C)N(Cc1cccnc1)C[C@H](C)[C@H](OC)CN(C)C2=O |
| -15[16.7 µM] | CCOC(=O)[C@H]1[C@@H]2C(=O)N3CCC[C@H]3[C@H](O[Si](C(C)C)(C(C)C)C(C)C)[C@H]2C=C2CCN(S(=O)(=O)c3ccc(C)cc3)C[C@H]21 |
| -19[16.7 µM] | O=C(C[C@H]1C[C@@H]2c3cc(NC(=O)c4ccc5c(c4)OCO5)ccc3O[C@@H]2[C@@H](CO)O1)NCC(F)(F)F |
| 12[16.7 µM] | CO[C@@H]1CN(C)C(=O)c2cc(NC(=O)NC3CCCCC3)ccc2OC[C@H](C)N(CCc2ccccc2)C[C@@H]1C |
| -19[16.7 µM] | C[C@@H]1CN([C@@H](C)CO)C(=O)Cc2cc(NC(=O)C3CC3)ccc2O[C@@H]1CN(C)C |
| -14[16.7 µM] | CC(C)NC(=O)Nc1ccc2c(c1)C(=O)N([C@H](C)CO)C[C@H](C)[C@@H](CN(C)C(=O)NC1CCCCC1)OCCCC[C@H](C)O2 |
| 12[16.7 µM] | N#C[C@@H]1[C@@H](c2ccccc2C2=CCCCC2)[C@@H](CO)N1C(=O)Cc1ccncc1 |
| -11[16.7 µM] | C[C@@H]1CN([C@H](C)CO)C(=O)c2cccc(NS(=O)(=O)c3ccc(F)cc3)c2O[C@@H]1CN(C)Cc1ccc(Oc2ccccc2)cc1 |
| 5[16.7 µM] | C#CCN([C@H](/C=C/C1CC1)[C@@H](O)Cc1ccccc1)[C@@H](Cc1ccccc1)C(=O)OC |
| -19[16.7 µM] | CCCN1[C@@H]2c3ccc(-c4cccc(F)c4)c(=O)n3C[C@@H]2[C@@H](CO)[C@@H]1C(=O)N[C@@H](C)c1ccccc1 |
| 3[16.7 µM] | CN1C(=O)c2cc(NC(=O)Cc3cccs3)ccc2OC[C@H]2O[C@@H](CC(=O)N[C@H]3CCN(Cc4ccccc4)C3)CC[C@@H]21 |
| 6[16.7 µM] | COC(=O)C[C@H]1CC[C@@H]2[C@H](COC[C@H](O)CN2CCC(F)(F)F)O1 |
| -10[16.7 µM] | O=C(C[C@H]1CC[C@@H]2[C@H](COC[C@@H](O)CN2S(=O)(=O)c2ccc(Cl)cc2)O1)NCc1ccncn1 |
| -14[16.7 µM] | CO[C@H]1CN(C)C(=O)c2cc(NC(=O)c3ccccc3F)ccc2OC[C@@H](C)NC[C@H]1C |
| 29[16.7 µM] | C[C@H](CO)N1C[C@H](C)[C@H](CN(C)C(=O)c2cccc(F)c2)Oc2cc(C#CC3CCCC3)ccc2S1(=O)=O |
| -4[16.7 µM] | Cc1noc(C)c1C(=O)N(C)C[C@H]1OCc2ccccc2-c2c(n(C)c3ccccc23)C(=O)N([C@@H](C)CO)C[C@H]1C |
| -15[16.7 µM] | C[C@@H]1CN([C@H](C)CO)C(=O)c2cc(NC(=O)CCCN(C)C)ccc2O[C@H]1CN(C)S(C)(=O)=O |
| 34 | O=S1(=O)c2cc(Cl)ccc2N2CC[C@H](C2)N1Cc1ccc(Cl)c(Cl)c1 |
| -27[16.7 µM] | C[C@H]1CN([C@@H](C)CO)C(=O)c2cccc(NS(=O)(=O)c3ccc(F)cc3)c2O[C@@H]1CN(C)Cc1ccc(Oc2ccccc2)cc1 |
| 7[16.7 µM] | CO[C@@H]1CN(C)C(=O)c2cc(NC(=O)CC(F)(F)F)ccc2OC[C@H](C)N(C(C)=O)C[C@@H]1C |
| 7[16.7 µM] | C[C@@H]1CN([C@H](C)CO)C(=O)c2cc(NC(=O)c3ccncc3)ccc2O[C@@H]1CN(C)Cc1ccc(Cl)c(Cl)c1 |
| 3 | CC(C)C[C@H]1COc2c(Cl)cccc2S(=O)(=O)N1Cc1cccc(Cl)c1 |
| 6[16.7 µM] | CCS(=O)(=O)Nc1ccc2c(c1)C(=O)N(C)[C@H]1CC[C@H](CC(=O)N[C@@H]3CCN(Cc4ccccc4)C3)O[C@H]1CO2 |
| 60*[16.7 µM] | Cc1ccc(-c2ccc3c(c2)O[C@@H](CN(C)C(=O)C2CCCCC2)[C@H](C)CN([C@H](C)CO)S3(=O)=O)cc1 |
| 11[16.7 µM] | Cc1noc(C)c1NC(=O)Nc1ccc2c(c1)C(=O)N([C@H](C)CO)C[C@H](C)[C@@H](CN(C)Cc1ccc(C(F)(F)F)cc1)O2 |
| -7[16.7 µM] | CCCNC(=O)Nc1ccc2c(c1)C(=O)N(C)C[C@H](OC)[C@@H](C)CN(C(=O)C1CCCCC1)[C@@H](C)CO2 |
| -8 | COC(=O)[C@]12C[C@H](CC(=O)NCc3ccccc3)C(=O)N(Cc3ccc4c(c3)OCO4)C1=C[C@H](C(C)(C)C)O[C@@H]2C |

Next compounds.
| HIV Env fusion | structure |
| --- | --- |
| -15[16.7 µM] | COc1cccc(S(=O)(=O)N[C@H]2CC[C@H](CCN)O[C@@H]2CO)c1 |
| 1[16.7 µM] | C[C@H](CO)N1C[C@H](C)[C@@H](CN(C)Cc2ccc(Cl)c(Cl)c2)Oc2ccc(NC(=O)C3CC3)cc2CC1=O |
| -20[16.7 µM] | CCCNC(=O)C[C@@H]1C[C@H]2c3cc(NC(=O)Nc4ccccc4F)ccc3O[C@H]2[C@@H](CO)O1 |
| 28[16.7 µM] | CO[C@H](C(=O)N(C)C[C@@H]1OCc2ccccc2-c2ccccc2C(=O)N([C@H](C)CO)C[C@H]1C)c1ccccc1 |
| 3[16.7 µM] | CN(C)CC(=O)N1[C@@H]2c3ccc(-c4cccnc4)c(=O)n3C[C@H]1[C@H](CO)[C@H]2C(=O)NC1CCC1 |
| -20 | CN1C(=O)[C@@]2(O[C@H]3C=CC=CN3C3=C2C(=O)CCC3)c2cc([N+](=O)[O-])ccc21 |
| -9[16.7 µM] | CC(C)(C)[S@](=O)N1Cc2cc(C(=O)NCc3ccncc3)nc(-c3cccc(-c4ccncc4)c3)c2[C@@H]1CCO |
| 40[16.7 µM] | CCCNC(=O)Nc1ccc2c(c1)OC[C@@H](C)N(CCC(F)(F)F)C[C@H](C)[C@@H](OC)CN(C)C2=O |
| 30[16.7 µM] | CO[C@H]1CC[C@H]2CCOc3ccc(C#N)cc3C(=O)N(C)CC3(CCCCC3)CC(=O)N(C)C[C@H]1O2 |
| 17 | c1ccc(Cc2cnc(N3CCN(Cc4ccc5c(c4)OCCO5)CC3)nc2)cc1 |
| 5[16.7 µM] | COc1ccc(CN(C)C[C@H]2Oc3c(NS(C)(=O)=O)cccc3C(=O)N([C@@H](C)CO)C[C@@H]2C)cc1 |
| 7[16.7 µM] | O=C(C[C@H]1C[C@@H]2c3cc(NC(=O)C4CCC4)ccc3O[C@@H]2[C@H](CO)O1)NCCc1ccccc1 |
| 7[16.7 µM] | O=C(C[C@@H]1C=C[C@@H](NC(=O)c2ccncc2)[C@H](CO)O1)NCC1CC1 |
| 0[16.7 µM] | CNC[C@@H]1OCCCC[C@@H](C)Oc2ccc(NS(=O)(=O)c3cccs3)cc2C(=O)N([C@H](C)CO)C[C@@H]1C |
| -3[16.7 µM] | CO[C@H]1CN(C)C(=O)c2ccc(NC(C)=O)cc2OC[C@@H](C)N(C(=O)Cc2ccccn2)C[C@H]1C |
| 4[16.7 µM] | COC(=O)C[C@H]1CC[C@@H](N)[C@@H](CO)O1 |
| 30 | CN1OC[C@@H]2CN(CC3CCCCC3)[C@H](c3ccc(-c4ccc(C#N)cc4)cc3)C[C@@H]21 |
| -13[16.7 µM] | CO[C@H]1CN(C)C(=O)c2ccc(NC(=O)C3CCCC3)cc2OC[C@@H](C)N(C(=O)CC2CC2)C[C@H]1C |
| -4[16.7 µM] | CCCN1C[C@H](C)[C@H](OC)CN(C)C(=O)c2cc(NC(=O)C3CCC3)ccc2OC[C@H]1C |
| 4 | Cc1ccc(C(Nc2ccccc2)c2ccc3ccc(C)nc3c2O)c(C)c1 (stereo not drawn) |

High-throughput results: PubChem BioAssay, Broad Institute
